Mtb hypoxia inh: reduces hypoxia-regulated biosensor signal in M. tuberculosis; hit rate 0.1% among 300,000; AID 1159583; fluorescence inhibition, % (test concentration not listed); M. tuberculosis hypoxia-regulated fluorescent reporter, fluorescence;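 active = 35 to 45% if threefold the growth effect, above 45% if 1.5-fold the growth effect; inactive = the rest, general growth blockers included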;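 also: wells of about 50 µL received 100 nL stock; 0% = vehicle wells and 100% = reference inhibitor wells; whole bacteria with a GFP reporter of the hypoxia response; strong numbers were not always called active; many hits fall short of the cut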
RN4220 kill: S. aureus RN4220 growth inhibition. AID 1259311. inhibition, % (test concentration not listed). OD600, 16 h. hit rate 0.33% among 330,000;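 active = z-score of -3 or lower and OD600 up to 0.18 on both plates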;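 also: plate controls were untreated cells for no effect and reference antibiotic for full effect; stock transfer was 100 nL into about 80 µL; one replicate is shown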
Bead autofluor: compound fluorescence in toxin protease inhibitor counterscreen | fluorescence intensity (no concentration beside the values) | hit rate 3.1% among 360,000 | compound autofluorescence counterscreen, microsphere flow cytometry; hits give high values | AID 624483;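 active = at least 3 SD above the mean of all compounds, about 16000 in these data; inconclusive = too few beads counted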;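 also: 100 nL of 1 mM stock went into each well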
BJeLR viability: BJeLR cell viability loss; inhibition, % (no concentration beside the values); BJeLR (HRASV12) viability, CellTiter-Glo ATP luminescence, 48 h; reference of the scale not given here; AID 1554; hit rate 0.17% among 300,000;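 active = replicate mean above 50%; inconclusive = above 50% but judged a plate artefact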;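 also: 50 nL library stock added to about 25 µL; numbers are from one replicate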
PrP 5UTR inh: inhibition of PrP 5' UTR reporter expression | cell-based PrP 5' UTR mRNA reporter, plate reader | inhibition, % (no concentration beside the values) | hit rate 0.35% among 340,000;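 active = every replicate at 50% or more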;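 also: 0 = median of the neutral control wells; tested in H4 reporter cells; numbers are from one replicate; inactives centre near -14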
ugtP null kill: compounds lethal to S. aureus RN4220 ugtP deletion mutant; OD600 growth, 16 h; some inactives read as strong as hits; growth inhibition, % (concentration not given with the values); hit rate 0.54% among 330,000; AID 1259309;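 active = z-score under -3 and OD600 up to 0.15 on both plates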;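 also: plate controls were untreated wells for no effect and antibiotic for full effect; wells of about 80 µL received 100 nL stock; the first replicate is given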
Mtb hypoxia inh growth: recorded beside Mtb hypoxia inh, whose call it bears; growth inhibition, %; measured here: M. tuberculosis growth (absorbance);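 0% = vehicle and 100% = reference antibiotic; read after six days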
* hit, by the source's call; ? = inconclusive; . = no result given; & = joins results of further samples.

Every second line gives: Mtb hypoxia inh	Mtb hypoxia inh growth	RN4220 kill	Bead autofluor	BJeLR viability	PrP 5UTR inh	ugtP null kill
- S=C(Nc1ccccc1)N1CCN(c2ccccc2)CC1
→ -2	-2	-0.9	3360	.	-20	-5
- Cc1ccc(NC(=O)CN(c2ccccc2)S(=O)(=O)N(C)C)cc1
→ 0	5	2.7	2390	3	3	9
- O=C(NCCCN1CCN(c2ccccc2F)CC1)C1CC(=O)N(C2CCCC2)C1 (stereo unspecified)
→ -1	-1	4.9	5557	0	-9	-4
- CC(Oc1ccc(Cl)cc1Cl)C(=O)Nc1ccc(O)cc1 (stereo unspecified)
→ 1	1	12	4917	6	-14	-1
- Cc1n[nH]c(=O)c2c(NC(=O)CSc3ncccn3)oc(C)c12
→ 3	4	4.2	6270	-3	-14	0
- C=CCOC(=O)C1=C[C@H](C2CC2)[C@@H](CCCO)[C@H](OCC)O1
→ -8	10	10	3563	-10	-18	1
- Cc1ccc(-c2c(C)n([O-])c3c([n+]2=O)CCC3)o1
→ 16	5	-7.6	3317	-17	-16	1
- N#Cc1ccccc1OCC(=O)OCC(=O)c1ccc2c(c1)NC(=O)CO2
→ .	.	1.5	4615	29	-2	4
- O=[N+]([O-])c1ccccc1/C=C/CN1CCCC(CO)C1 (stereo unspecified)
→ 18	9	0.3	4213	3	-33	9
- CCCCN(CCCC)CCCN1CC(=O)N2[C@@H](Cc3c([nH]c4ccccc34)C2(C)C)C1=O
→ 9	11	-0.9	3636	6	-22	0
- COc1ccc(C(OC)[C@@]2(Cc3ccc(O)cc3)N=C(N)N(C)C2=O)cc1 (stereo partly specified)
→ 9&16	5&5	7.2&4.0	.	.	.	1&4
- Cc1ccc(S(=O)(=O)Oc2ccccc2C=NNC(=O)c2c(Cl)cnn2C)cc1
→ 15	10	6.0	.	.	.	-3
- Cc1cccc(NC(=S)NN=C(c2ccccc2)C(C)C)c1
→ 3	-2	-4.5	.	.	.	36
- Cc1ccc(-c2cc(C(=O)N/N=C/c3ccccc3O)n[nH]2)o1
→ .	.	.	4206	4	-4	.
- CC1Cc2nc(SCC(=O)N3CCOCC3)n(C)c(=O)c2S1 (stereo unspecified)
→ 7	-2	1.2	5622	19	-8	-1
- NP(=O)(Oc1ccc(Cl)cc1)Oc1ccc(Cl)cc1
→ 2	10	3.0	3896	5	-22	-3
- CSc1ccc(C(=O)C(C)(C)N2CCOCC2)cc1
→ 13	13	6.5	3770	-10	-8	-2
- Cc1ccc(S(=O)(=O)N2CCCCC2)cc1NC(=O)c1c(-c2ccccc2)noc1C
→ 3	-1	1.2	7943	.	-13	5
- CCN(CC)S(=O)(=O)c1ccc(Cl)c(NC(=O)COC(=O)/C=C/c2cc(OC)c(OC)c(OC)c2)c1
→ -7	-7	4.5	9446	-11	-2	4
- CCN1C(=NCC(C)C)N[C@@H](c2cccc(F)c2)C(C(=O)OC)=C1C
→ .	.	.	3852	1	-3	.
- COc1ccc(/C=N/NC(=O)CCn2c3ccccc3c3ccccc32)cc1O
→ .	.	.	11411	2	-27	.
- COc1ccc(N2C(=O)CC(Cc3ccc(Br)cc3)C2=O)cc1 (stereo unspecified)
→ 12	2	4.5	3637	3	-14	5
- CCN1C(=O)[C@H]2[C@@H](c3ccc(-c4ccc(F)cc4)cc3)N[C@@](Cc3ccccc3)(C(=O)OC)[C@H]2C1=O
→ .	.	.	8159	-1	-14	.
- CCCn1c(=S)[nH]c2cc(C(=O)NCC3CCCO3)ccc2c1=O (stereo unspecified)
→ 8	8	0.5	5279	10	-18	5
- Cn1nc(N)nc1N1CCN(c2ccc(F)cc2)CC1
→ -8	-5	-1.6	4199	-2	-38	-1
- CC1(C)CC(NC(=O)c2ccccc2C(=O)NC2CC(C)(C)NC(C)(C)C2)CC(C)(C)N1
→ -4	8	1.0	2490	-8	-6	0
- CC(c1ccco1)N(C(=O)CSc1ccc(Br)cc1)c1ccccn1 (stereo unspecified)
→ 7	6	2.5	3502	-9	-1	30
- COc1cc(O)c(C(=O)CC(=O)c2ccncc2)c(OC)c1
→ 17	11	-0.4	3628	.	-108	7
- C/C(N)=C(/C#N)C(=O)COC(=O)COc1ccc(Cl)cc1
→ 9&2	5&4	5.9&6.2	4043&4193	-14	-14&-29	-1&3
- Cc1cccc2[nH]c(CN(C)C(=O)C3CCC(=O)N(C4CC4)C3)nc12 (stereo unspecified)
→ 8	6	1.2	5251	1	-11	2
- COc1cccc(NC(=O)N2CCOCC2)c1
→ .	.	3.5	4880	-11	-14	-10
- COc1cccc(/C=N/NC(=S)NCCc2ccccc2)c1OC
→ .	.	.	3974	-1	-10	.
- Cc1ccsc1/C=N/NC(=O)Cc1cccn1C
→ .	.	.	2089	7	-22	.
- NC(=O)CC(NC(=O)c1ccc(Br)cc1)c1ccc(N2CCC(Br)CC2)c([N+](=O)[O-])c1 (stereo unspecified)
→ 7	5	-4.8	2993	-5	-7	7
- CC(=O)C(Sc1nc(NC(C)(C)C)nc(N(C)C)n1)C(C)=O
→ .	.	-2.3	.	5	-10	-2
- COc1cccc(C(=O)N2CCN(Cc3ccco3)CC2)c1OC
→ .	.	4.3	2121	9	-12	3
- CCOc1ccccc1-c1nc(CN2CCN(C(=O)c3ccco3)CC2)c(C)o1
→ 6	5	3.7	5496	8	-15	8
- c1csc(-c2nc(CN3CCSCC3)cs2)c1
→ -7	-5	2.1	3965	16	-16	1
- COC(=O)C1CCN(c2ccc(Cl)nn2)CC1
→ 8	-2	0.2	4793	.	0	6
- Cc1ccc2c(C(=O)CN3CC(C)CC(C)C3)c(C)[nH]c2c1 (stereo unspecified)
→ 12	10	2.5	3785	7	-7	-4
- COc1ccc(S(=O)(=O)Nc2c(F)cccc2F)cc1
→ 10	8	9.0	2091	3	-96	2
- Cc1ccc(C(=O)NCCCN2CCOCC2)cc1S(=O)(=O)N1CCOCC1
→ 1	-2	3.0	.	.	-5	0
- COc1ccccc1/C=C/C(=O)OCC(=O)Nc1ccccc1Sc1ccccc1
→ 13	-1	8.6	3209	1	-7	2
- CCN(CC(=O)Nc1c(F)cccc1F)C(=O)C1CCCN(C(=O)c2ccc(Cl)cc2)C1 (stereo unspecified)
→ -7	3	-3.1	5166	10	-12	-6
- CC(OC(=O)CCC(=O)c1ccc(F)cc1)C(=O)NC1CCCCC1C (stereo unspecified)
→ 6	-10	3.0	6017	-2	-18	7
- Cc1cc(NCCO)c2cc(O)ccc2n1
→ 1	10	-4.1	10798	-14	.	-7
- O=C(COC(=O)c1cccnc1)Nc1ccc2c(c1)OCO2
→ 2	8	0.5	4078	4	-16	3
- COc1ccc(CCNC(=O)/C(C#N)=C2\N=C(NC(=O)c3cccs3)c3ccccc32)cc1
→ -11	4	4.9	2076	-3	-26	-7
- CCOC(=O)C(Nc1ccc2ccccc2c1)C(=O)OCC
→ 5	9	8.3	2352	3	-27	9
- CCC(C)C(NC(=O)C1CCC(C)CC1)C(=O)NCc1cccnc1 (stereo unspecified)
→ 17	18	4.4	4027	-16	-46	3
- COc1cc(C2C(C(=O)c3ccc(C)o3)=C(O)C(=O)N2CCCn2ccnc2)cc(OC)c1OC (stereo unspecified)
→ 6	-4	0.0	4765	6	2	11
- FC(F)Oc1ccc(NC(=S)N2CCN(Cc3ccccc3)CC2)cc1
→ -3	7	2.9	3361	5	-4	1
- CC(CCc1ccccc1)=NNC(=O)c1ccccc1
→ -2	5	3.3	.	.	.	1
- COc1ccc(Br)cc1CNC(=O)C1CCN(S(=O)(=O)N2CCCC2)CC1
→ 9	7	2.0	10221	-1	-15	4
- CCCCOCCCNC(=O)N[C@H](C(=O)OC)C(C)CC (stereo partly specified)
→ 16	4	2.7	3467	-1	-4	10
- O=c1[nH]c2ccccc2nc1C(F)(F)C(F)F
→ 5	10	3.5	7985	-4	1	8
- NC(=O)C1CCN(C2CC(=O)N(c3cccc(F)c3)C2=O)CC1 (stereo unspecified)
→ -7	-16	1.1	2539	-4	-12	1
- O=C(Cn1c(NCCCO)nc2ccccc21)c1ccc(Cl)cc1Cl
→ 8	8	-0.2	3756	7	-26	4
- Cc1cc(C)nc(/N=C(\N)Nc2cccc([N+](=O)[O-])c2)n1
→ .	.	.	11154	4	-10	.
- COC(=O)c1ccc(NC(=O)CSc2nnc(-c3ccccc3)n2C)cc1
→ .	.	3.7	4571	3	5	-4

Three compounds from above, sorted by SMILES length, smallest number first:
Every second line gives: Mtb hypoxia inh	Mtb hypoxia inh growth	RN4220 kill	Bead autofluor	BJeLR viability	PrP 5UTR inh	ugtP null kill
- Cc1ccc(NC(=O)CN(c2ccccc2)S(=O)(=O)N(C)C)cc1
→ 0	5	2.7	2390	3	3	9
- COc1ccc(/C=N/NC(=O)CCn2c3ccccc3c3ccccc32)cc1O
→ .	.	.	11411	2	-27	.
- Cc1ccc(S(=O)(=O)Oc2ccccc2C=NNC(=O)c2c(Cl)cnn2C)cc1
→ 15	10	6.0	.	.	.	-3

Further entries:
Every second line gives: Mtb hypoxia inh	Mtb hypoxia inh growth	RN4220 kill	Bead autofluor	BJeLR viability	PrP 5UTR inh	ugtP null kill
- CCc1nnc(NC(=O)c2ccc3c(c2)C(=O)N(C(C)(C)C)C3=O)s1
→ -7	-8	3.4	9427	3	-21	-8
- Clc1ccc(Oc2cnns2)cc1Cl
→ 3	-5	-1.7	2435	2	-5	-8
- CCCc1cc(=O)[nH]c(SCC(=O)Nc2sccc2C#N)n1
→ 15	-4	4.8	?	.	-6	0
- Cc1cccc(N=C2NN=C(c3c[nH]c4ccccc34)CS2)c1
→ -3	-3	-0.9	2273	1	-41	-16
- Cc1ccc(C(=O)NCC(=O)NCc2ccccc2F)s1
→ 8	-5	2.2	.	.	.	14
- CCC1Sc2ccc(S(=O)(=O)CCC(=O)NC3CCCCCC3)cc2NC1=O (stereo unspecified)
→ 0	-6	27	4110	-8	1	4
- CCOC(=O)[C@H]1[C@H]2COc3cc(OC)ccc3[C@@H]2N2C(=O)N(c3ccc(Cl)cc3)C(=O)[C@@]12C
→ .	.	.	3983	1	-14	.
- O=C1CCC([N+](=O)[O-])C(c2ccc(F)c(Br)c2)N1 (stereo unspecified)
→ -7	4	0.9	3586	-6	0	3
- O=C(CNC(=O)c1ccccc1)OCN1C(=O)c2ccccc2C1=O
→ 3	4	3.1	6180	.	-2	3
- CCCC(=O)Nc1nnc(SCC(=O)NCc2ccc3c(c2)OCO3)s1
→ 10	8	7.2	4423	2	-9	3
- Cc1c(C=NNC(=O)c2cccs2)c2ccccc2n1Cc1ccccc1Cl
→ 9	4	4.0	.	.	.	3
- CC(=O)N1CCN(C(=O)COC(=O)COc2c(C)cc(C)cc2C)CC1
→ 8	6	6.3	3974	.	-40	4
- COc1ccc(CC(=O)Nc2c3c(nn2C(C)(C)C)CS(=O)(=O)C3)cc1OC
→ 6	7	-1.0	?	-10	-10	1
- CC1(C)CC(=O)C2=C(C1)OC(N)=C(C#N)C2c1cccs1 (stereo unspecified)
→ -2	2	1.5	4916	0	-23	-5
- CC(=O)c1ccc(Sc2nnnn2-c2ccccc2)c([N+](=O)[O-])c1
→ 16	10	18	2558	4	-4	19
- CCC(C)Sc1cc(-c2nc3ccc(Cl)cn3c2NC2CCCCC2)ccc1OC (stereo unspecified)
→ 6	10	0.7	3401&4511	.	-14	-8
- CCc1ccccc1NC(=O)CSc1nnc(Cn2cnc3ccccc32)o1
→ .	.	1.4	2549	-2	-6	-6
- Cc1cc(C)nc(N=C(N)Nc2ccc(F)c([N+](=O)[O-])c2)n1
→ 1	-2	2.1	.	.	.	9
- COC(=O)c1c(O)cc(C(C)(C)C)n(-c2ccccc2)c1=O
→ -5	2	-4.8	2621	-5	-5	11
- Cc1ccccc1S(=O)(=O)Nc1ncnc2scc(-c3ccccc3)c12
→ 4	4	11	2362	7	-12	10
- Cc1ccc(C2CC(C(F)(F)F)n3nc(C(=O)Nc4c(C)n(C)n(-c5ccccc5)c4=O)cc3N2)cc1 (stereo unspecified)
→ 12	4	5.5	4733	1	-18	14
- Cc1ccccc1-c1nnc(SCC(=O)NC2CCCCC2)o1
→ -1	10	18	3243	1	-1	5
- Cc1ccc(CS(=O)Cc2ccc(C(=O)NCc3ccccc3Br)o2)cc1 (stereo unspecified)
→ 10	5	-3.9	6028	-8	3	12
- COc1cccc(CNS(=O)(=O)c2ccc3c(c2)CC(C)N3C(=O)C2CC2)c1 (stereo unspecified)
→ 5	6	10	6880	15	5	3
- COc1cc2c(cc1OC)C(c1cc3cccc(C)c3[nH]c1=O)N(C(=O)c1ccco1)CC2 (stereo unspecified)
→ .	.	.	5175	1	-17	.
- COc1ccc(-c2csc(-c3cccnc3)n2)cc1C
→ .	.	.	3241	16	-51	.

Compound activity: PubChem BioAssay, several laboratories
